Screens: PubChem BioAssay, several laboratories
RN4220 kill = kills Staphylococcus aureus RN4220; AID 1259311; 330,000 compounds, 0.33% hits; S. aureus RN4220 growth, OD600, 16 h; inhibition, % (concentration not given with the values);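 active means z-score of -3 or lower and OD600 up to 0.18 on both plates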;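 further: plate controls were untreated cells for no effect and reference antibiotic for full effect; stock transfer was 100 nL into about 80 µL; one replicate is shown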
PrP 5UTR inh = inhibition of PrP 5' UTR reporter expression; cell-based PrP 5' UTR mRNA reporter, plate reader; inhibition, % (no concentration beside the values); 340,000 compounds, 0.35% hits;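 active means every replicate at 50% or more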;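 further: 0 = median of the neutral control wells; tested in H4 reporter cells; numbers are from one replicate; inactives centre near -14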
BJeLR viability = kills HRASV12-expressing BJeLR cells. 300,000 compounds, 0.17% hits. inhibition, % (no concentration beside the values). BJeLR (HRASV12) viability, CellTiter-Glo ATP luminescence, 48 h; reference of the scale not given here;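 active means replicate mean above 50%; inconclusive means above 50% but judged a plate artefact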;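 further: 50 nL library stock added to about 25 µL; numbers are from one replicate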
ugtP null kill = growth inhibition of S. aureus ugtP deletion strain; S. aureus RN4220 ugtP deletion, OD600 growth, 16 h; some inactives read as strong as hits; growth inhibition, % (test concentration not listed); 330,000 compounds, 0.54% hits; AID 1259309;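 active means z-score under -3 and OD600 up to 0.15 on both plates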;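 further: plate controls were untreated wells for no effect and antibiotic for full effect; wells of about 80 µL received 100 nL stock; the first replicate is given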
Autofluor counter = compound fluorescence in toxin protease inhibitor counterscreen; compound autofluorescence counterscreen, microsphere flow cytometry; stronger effect = higher value; fluorescence intensity (test concentration not listed); 360,000 compounds, 3.1% hits;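 active means at least 3 SD above the mean of all compounds, about 16000 in these data; inconclusive means too few beads counted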;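 further: 100 nL of 1 mM stock went into each well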
Mtb hypoxia rep = Mtb hypoxia fluorescent reporter inhibition. M. tuberculosis hypoxia-regulated fluorescent reporter, fluorescence. fluorescence inhibition, % (test concentration not listed). 300,000 compounds, 0.1% hits;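 active means 35 to 45% if threefold the growth effect, above 45% if 1.5-fold the growth effect; inactive means the rest, general growth blockers included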;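 further: wells of about 50 µL received 100 nL stock; 0% = vehicle wells and 100% = reference inhibitor wells; whole bacteria with a GFP reporter of the hypoxia response; strong numbers were not always called active; many hits fall short of the cut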
Mtb hypoxia rep growth = second read-out of Mtb hypoxia rep, no call of its own (marks repeat the call); growth inhibition, %; measured here: M. tuberculosis growth (absorbance);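 0% = vehicle and 100% = reference antibiotic; read after six days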
Starred values were filed as active, the others as inactive; ? = inconclusive; . = no result given.

SMILES | RN4220 kill | PrP 5UTR inh | BJeLR viability | ugtP null kill | Autofluor counter | Mtb hypoxia rep | Mtb hypoxia rep growth
COc1ccccc1N1CCN(C(=O)CSc2nc3ccccc3o2)CC1 | 3.1 | -27 | 5 | 4 | 15970 | 12 | 10
COC(=O)c1cc2ccsc2n1CC(=O)Nc1ccc(N(C)C)cc1 | 0.5 | 1 | 2 | 0 | ? | 6 | 2
O=C(Oc1ccc2c(=O)c(Oc3ccc4ccccc4c3)coc2c1)c1cncc(Br)c1 | 3.8 | -18 | 27 | 6 | 4480 | . | .
Cc1oc2cc3oc(=O)c(CC(=O)NCCC(=O)O)c(C)c3cc2c1C | 8.2 | -16 | 18 | 13 | 3382 | -6 | -8
Cc1ccc(-n2ncc3c(=O)[nH]cnc32)c(C)c1 | 3.1 | -21 | 21 | 4 | ? | 2 | -1
CCOc1ccccc1C(=O)Nc1cc(C(=O)NCCc2ccccc2)ccc1Cl | 6.7 | -28 | 13 | -2 | 5707 | -4 | 2
CCOC(=O)c1cnn(Cc2ccccc2Cl)c1N | 3.2 | -13 | -5 | 5 | 24592* | 10 | 14
CCN1C(=O)/C(=C\N2CCN(C)CC2)SC1=S | . | -29 | 3 | . | 3291 | . | .
COc1cc(NC(=O)CN2C(=O)COc3ccc(S(=O)(=O)N4CCCC4)cc32)cc(OC)c1 | -1.5 | -3 | 1 | -5 | 3838 | -5 | -4
CC(C)Oc1ccc(C=NNC(=O)c2nnn(-c3nonc3N)c2CN(C)C2CCCCC2)cc1 | 5.9 | . | . | 11 | . | 0 | -5
CC(=O)N(N=Cc1ccc([N+](=O)[O-])o1)c1nc2ccccc2c(=O)n1-c1ccccc1 | 19 | . | . | 20 | . | 6 | 13
CC(C)(C)NC(=O)CN(Cc1ccccc1)S(=O)(=O)c1ccccc1 | -0.9 | -17 | 14 | -4 | 3352 | 4 | 2
COC(=O)CN(C(=O)CSc1nnc(-c2cccc(OC)c2)o1)c1ccc(OC)cc1 | 2.9 | -10 | -1 | -2 | 2635 | 5 | -1
COc1cc(SC)ccc1C(=O)Nc1ccccn1 | 5.8 | -27 | 2 | 1 | 4945 | 3 | 8
O=C(N/N=C/C=C/c1ccccc1)c1cccc(Br)c1 | . | -25 | 4 | . | 13299 | . | .
CC1(C)CCC(=O)N(c2ccccc2)C1=O | 2.0 | 3 | 0 | 1 | 2597 | -2 | 2
c1ccc(-c2nn3c(-c4ccco4)nnc3s2)nc1 | 2.8 | -1 | -2 | 0 | 2551 | . | .
Clc1cccc(Cl)c1CO/N=C/c1cccs1 | . | -18 | 12 | . | 6276 | . | .
O=C1CC2c3c(cccc3CN1Cc1ccccc1)CC(O)C2O (stereo not given) | 7.1 | . | . | 3 | . | 18 | 11
FC(F)(F)c1cc(C(F)(F)F)c2ccc(N3CCOCC3)nc2n1 | 4.6 | -4 | 2 | 8 | 4107 | -5 | 6
Cc1cccc(C)c1NC(=O)CN(C)CC(=O)Nc1ccccc1Oc1ccccc1 | 2.9 | -15 | -7 | -18 | 2556 | 6 | 6
Cc1ccc(S(=O)(=O)N2CCCC2C(=O)NCc2ccco2)cc1 (stereo not given) | 2.9 | -15 | -4 | 5 | 5944 | 8 | 6
O=C(N1CCN(Cc2ccc3c(c2)OCO3)CC1)C(Cl)(Cl)Cl | 3.3 | -31 | -4 | 12 | 4424 | 15 | 13
COCCn1c(-c2ccccc2)nc2oc3ccccc3c(=O)c2c1=O | 5.3 | -20 | -10 | -13 | 8992 | 12 | 11
Cc1ccc(N)c([N+](=O)[O-])c1 | 4.4 | -5 | . | 3 | 5657 | 12 | 13

12 of the compounds above, with values under each structure.
Order of results: RN4220 kill, PrP 5UTR inh, BJeLR viability, ugtP null kill, Autofluor counter, Mtb hypoxia rep, Mtb hypoxia rep growth
COc1cc(SC)ccc1C(=O)Nc1ccccn1
 : 5.8, -27, 2, 1, 4945, 3, 8
O=C(N/N=C/C=C/c1ccccc1)c1cccc(Br)c1
 : ., -25, 4, ., 13299, ., .
CC1(C)CCC(=O)N(c2ccccc2)C1=O
 : 2.0, 3, 0, 1, 2597, -2, 2
c1ccc(-c2nn3c(-c4ccco4)nnc3s2)nc1
 : 2.8, -1, -2, 0, 2551, ., .
Clc1cccc(Cl)c1CO/N=C/c1cccs1
 : ., -18, 12, ., 6276, ., .
O=C1CC2c3c(cccc3CN1Cc1ccccc1)CC(O)C2O (stereo not given)
 : 7.1, ., ., 3, ., 18, 11
FC(F)(F)c1cc(C(F)(F)F)c2ccc(N3CCOCC3)nc2n1
 : 4.6, -4, 2, 8, 4107, -5, 6
Cc1cccc(C)c1NC(=O)CN(C)CC(=O)Nc1ccccc1Oc1ccccc1
 : 2.9, -15, -7, -18, 2556, 6, 6
Cc1ccc(S(=O)(=O)N2CCCC2C(=O)NCc2ccco2)cc1 (stereo not given)
 : 2.9, -15, -4, 5, 5944, 8, 6
O=C(N1CCN(Cc2ccc3c(c2)OCO3)CC1)C(Cl)(Cl)Cl
 : 3.3, -31, -4, 12, 4424, 15, 13
COCCn1c(-c2ccccc2)nc2oc3ccccc3c(=O)c2c1=O
 : 5.3, -20, -10, -13, 8992, 12, 11
Cc1ccc(N)c([N+](=O)[O-])c1
 : 4.4, -5, ., 3, 5657, 12, 13

Further structures follow:
SMILES | RN4220 kill | PrP 5UTR inh | BJeLR viability | ugtP null kill | Autofluor counter | Mtb hypoxia rep | Mtb hypoxia rep growth
COc1ccc(Cl)cc1NC(=O)C/C(C)=N/NC(=O)c1ccccc1Cl | . | -21 | -11 | . | 3565 | . | .
O=C(Nc1nc2cc3c(cc2s1)OCCO3)c1ccc([N+](=O)[O-])o1 | 21 | -102 | 6 | 88* | 5860 | 11 | 10
Cc1ccc(OCC(=O)N2CCc3ccccc3C2)c(Br)c1 | 3.3 | -8 | -1 | 2 | 3179 | 6 | 3
Cc1ccc2nc(N3CC(C)OC(C)C3)nc(-c3ccccc3)c2c1 (stereo not given) | -1.5 | -8 | 15 | 18 | 5444 | -5 | 1
CC(=O)c1ccc(-c2nc3ccccc3n2C)o1 | -24 | -49 | 9 | 7 | 3225 | 3 | 10
O=c1[nH]c(=O)n(-c2cccc(Cl)c2)c(O)c1C=NCCCN1CCOCC1 | 7.6 | -18 | -4 | 1 | 3179 | 9 | 3
O=C(Nc1nc2ccccc2n1CCN1CCOCC1)c1cn(-c2ccccc2)nc1-c1ccccc1 | -2.8 | 12 | 7 | -10 | 2441 | -9 | -1
Nc1nc(C2C(=O)CCCC2=O)cs1 | 6.4 | -30 | 1 | -3 | 24150* | -1 | 2
O=c1c2[nH]c3ccc(Cl)cc3c2ncn1Cc1ccccn1 | -4.4 | -3 | 2 | -7 | 2387 | 1 | 7
Cc1ccc(S(=O)(=O)N(Cc2n[nH]c(=S)n2-c2ccccc2)c2cccc(Cl)c2)cc1 | 10.0 | -9 | -2 | 7 | 3645 | 8 | 8
O=C(c1ccco1)N1CCN(C(=S)NC2CC3CCC2C3)CC1 (stereo not given) | 4.6 | -23 | 1 | 5 | 4012 | 13 | 5
Cc1ccc(-n2nnnc2SCC(=O)c2ccc3c(c2)NC(=O)CO3)c(C)c1 | 4.4 | -25 | -2 | -6 | 10025 | 2 | 7
CCOc1ccc(C=NNC(=O)c2cc3c(OC)cc(OC)cc3[nH]2)cc1OC | 5.6 | . | . | -6 | . | 5 | 8
COCC(=O)Nc1ccc(S(=O)(=O)NCC2CCCO2)cc1 (stereo not given) | 5.0 | -22 | -2 | 1 | 4032 | 16 | 3
COc1ccc(NC(=O)CC2C(=O)N(c3cccc(OC)c3)C(=O)N2Cc2ccco2)cc1 (stereo not given) | 7.2 | -26 | 1 | 6 | 4367 | 8 | 2
O=C(NCc1ccncc1)c1ccc(Cl)c(S(=O)(=O)N2CCOCC2)c1 | 2.6 | -7 | -7 | -2 | 3611 | 4 | 8
COc1ccc(C(=O)NC(CC(=O)O)c2cc([N+](=O)[O-])ccc2Cl)cc1 (stereo not given) | 2.2 | -15 | -4 | 0 | 3337 | 4 | 0
COc1cc(OC)c(/C=N/NC(=O)c2ccc([N+](=O)[O-])cc2)cc1Br | . | -6 | 14 | . | 8254 | . | .
Cc1c(C(=O)O)cccc1-c1ccc(/C=N/n2cnnc2)o1 | . | -24 | 8 | . | 4327 | . | .
O=C(COC(=O)CC(NC(=O)c1ccccc1Cl)c1ccccc1)Nc1cccc(F)c1 (stereo not given) | -1.8 | -13 | 6 | -6 | 2199 | -9 | -1
COc1ccc2cc(C(N)=O)/c(=N/NC(=O)c3ccco3)oc2c1 | . | -17 | -18 | . | 2416 | . | .
CNC(=O)Cn1nc(-c2ccc(C)c(S(=O)(=O)N(C)C)c2)c2ccccc2c1=O | 5.1 | -36 | 2 | -7 | 5120 | 4 | 4
CCOc1ccccc1NC(=O)C(CC)Sc1nc2ccsc2c(=O)n1CCC(=O)O (stereo not given) | 7.2 | -22 | -8 | 16 | 4406 | -6 | 5
Cc1ccc(CNC(=O)C(C(=O)NCc2ccc(C)o2)c2ncc(C(F)(F)F)cc2Cl)o1 | 5.7 | 10 | -1 | 7 | 5140 | 5 | 4
Cc1cc(C)n2nc(SCC(=O)N3CCN(c4ccc(F)cc4)CC3)nc2n1 | 3.2 | -10 | . | 4 | 4074 | 11 | 1
(more compounds)
SMILES | RN4220 kill | PrP 5UTR inh | BJeLR viability | ugtP null kill | Autofluor counter | Mtb hypoxia rep | Mtb hypoxia rep growth
O=C(COC(=O)C(Cc1ccccc1)NC(=O)c1ccco1)NC1CC1 (stereo not given) | 2.1 | -16 | 7 | -3 | 5700 | 6 | 14
CCOc1cnc(-c2ccccc2F)o1 | 11 | -21 | -5 | 9 | 3487 | -8 | -4
CCc1cccc(NS(=O)(=O)c2ccc3c(c2)NC(=O)CO3)c1 | 3.0 | 1 | 7 | -5 | 4263 | 1 | 0
CCOc1ccccc1NC(=O)c1cnccn1 | 3.0 | -9 | 5 | -4 | 4300 | 18 | 3
CCOC(=O)c1oc2ccc(Br)cc2c1COC(=O)C1=COCCO1 | 4.2 | -8 | 0 | 3 | ? | 7 | 4
O=C(Nc1cccc(Cl)c1)Nc1ccc2c(c1)C(=O)OC2 | -0.7 | -31 | 9 | 7 | 2134 | 9 | 3
O=C(Cc1nn[nH]n1)NCc1ccccc1Cl | 1.6 | -15 | 1 | 1 | 4210 | . | .
C=CCN(CC#CCOc1ccccc1OC)CC=C | 4.2 | . | 6 | 5 | . | 16 | 5
CC1CCC(C(=O)NC(C(=O)N2CCN(c3ccccn3)CC2)C(C)C)CC1 (stereo not given) | 1.8 | -13 | 3 | 3 | 9561 | 1 | 7
O=C(COC(=O)COc1ccc2ccccc2c1)NC1CCCc2ccccc21 (stereo not given) | 6.3 | -52 | -5 | 4 | 7979 | 8 | 4
CC1NC(=O)NC1CCCCC(=O)O (stereo not given) | 1.9 | -5 | 2 | 1 | 4001 | 11 | 9
COc1ccc(N2CC(C(=O)Nc3ccc(S(=O)(=O)N4CCOCC4)cc3)CC2=O)cc1 (stereo not given) | 4.4 | -14 | 5 | 12 | 2153 | 5 | 2
CCCS(=O)(=O)c1nc(S(=O)(=O)c2ccc(C)cc2)c(N2CCC3(CC2)OCCO3)s1 | 4.1 | -20 | -8 | 8 | 5824 | -5 | -6
O=C(c1ccc(C(F)(F)F)cc1)C1CCCN(Cc2cccn2-c2ncccn2)C1 (stereo not given) | -5.2 | -34 | 5 | 0 | 3534 | 6 | -4
Cc1noc(C)c1C(=O)OC(C)C(=O)NC(C)c1ccc(Cl)cc1Cl (stereo not given) | 3.6 | -10 | . | 0 | 3364 | -1 | 2
O=C(CCCOc1ccc(Cl)cc1Cl)N/N=C/c1ccc(Cl)cc1 | . | -17 | -8 | . | 2231 | . | .
CCOc1[nH]n(-c2ccccc2)c(=O)c1C=NCC(=O)OC | 5.0 | -24 | -6 | 4 | 2507 | 13 | 7
